Screening results (PubChem BioAssay)
D2 agonist: human D2 receptor agonism in beta-arrestin assay; P14416; DiscoveRx PathHunter D2 beta-arrestin, luminescence, 90 min; 100% = 57 uM dopamine signal; AID 624465; 360,000 tested, 0.084% active; activation, % (concentration not given with the values); in the data active = activation above about 40%; inconclusive = about 15% to 40%; inactive = below about 15%; further: compound concentration not given in the record; the text of the record calls up to 30% inactive
Target sequence (P14416 whole entry, looked up): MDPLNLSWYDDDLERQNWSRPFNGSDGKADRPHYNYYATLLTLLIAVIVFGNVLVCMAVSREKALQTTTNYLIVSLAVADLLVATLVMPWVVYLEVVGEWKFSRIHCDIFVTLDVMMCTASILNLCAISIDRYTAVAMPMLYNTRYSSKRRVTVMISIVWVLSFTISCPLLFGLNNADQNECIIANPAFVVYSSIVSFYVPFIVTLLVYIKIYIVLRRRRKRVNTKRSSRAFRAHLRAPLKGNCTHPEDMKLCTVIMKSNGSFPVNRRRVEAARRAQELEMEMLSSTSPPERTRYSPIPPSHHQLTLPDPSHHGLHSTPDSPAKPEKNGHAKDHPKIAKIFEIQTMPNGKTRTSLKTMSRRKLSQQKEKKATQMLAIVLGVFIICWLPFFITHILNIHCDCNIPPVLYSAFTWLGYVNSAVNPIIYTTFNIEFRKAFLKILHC
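DiscoveRx PathHunter D2 beta-arrestin cells (2,100/well) attached overnight, then compound-stimulated 90 min at 37 C in HBSS/10 mM HEPES/0.1% Tween-20 buffer; beta-galactosidase complementation read by luminescence after 1 h at ambient temperature. Dopamine 57 uM final (EC100) as control.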
PINK1 expr mod: changes PINK1 expression; PINK1 immunofluorescence, high-content cytometry, 24 h; Potency, µM (doses to about 76.6 µM), for inactives: at the top dose activation (PINK1 increase), most hits filed as activators; 410,000 tested, 0.2% active; AID 624263; active = well fitted activation curve with a large enough effect; inconclusive = small, poorly fitted or top-dose-only effect; inactive = flat fitted curve, though single readings scatter; cell line not stated here;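 further: potency means the concentration at half of the fitted maximal effect; % of control where 0% means no effect; nearly all actives have a fitted effect of over 65% in size; a mitochondrial uncoupler was the plate control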
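Measures PINK1 amount and localization on or inside mitochondria by immunofluorescence. Stable cells get compounds at 5 concentrations for 24 hours before fixation and staining; CCCP controls included.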
Six1-Eya2 blk: Six1/Eya2 interaction inhibition | AID 651725 | AlphaScreen GST-Six1/His-Eya2 binding, biochemical; stronger effect = lower value; control for the full effect not named in the record | activity change, % (test concentration not listed) | 360,000 tested, 0.56% active; in the data active = activity change below about -65%; inconclusive = about -30% to -65%; inactive = above about -30%; further: on the % scale 0 is the no-effect control and ±100 the full control effect; compound concentration not given in the record
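Compounds are tested against tagged Six1 and Eya2 proteins bridged by glutathione donor and nickel acceptor beads; after a one-hour incubation at 37 °C without light, AlphaScreen emission is recorded.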
TRPML1 blocker: blocks the human TRPML1 channel | Q9GZU1 | TRPML1-inducible cells, Ca2+ dye fluorescence, FDSS; stronger effect = lower value; inhibition of EC80 agonist-evoked calcium signal | activity change, negative = inhibition, % (test concentration not listed) | 390,000 tested, 0.02% active | AID 624415; in the data active means activity change below about -50%; inconclusive means about -30% to -50%; inactive means above about -30%;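 further: stimulus is agonist 54-4 at its EC80 concentration; on the % scale 0 is the no-effect control and ±100 the full control effect; compound concentration not given in the record; the text of the record puts the active cut at -80%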
Target sequence (Q9GZU1 whole entry, looked up): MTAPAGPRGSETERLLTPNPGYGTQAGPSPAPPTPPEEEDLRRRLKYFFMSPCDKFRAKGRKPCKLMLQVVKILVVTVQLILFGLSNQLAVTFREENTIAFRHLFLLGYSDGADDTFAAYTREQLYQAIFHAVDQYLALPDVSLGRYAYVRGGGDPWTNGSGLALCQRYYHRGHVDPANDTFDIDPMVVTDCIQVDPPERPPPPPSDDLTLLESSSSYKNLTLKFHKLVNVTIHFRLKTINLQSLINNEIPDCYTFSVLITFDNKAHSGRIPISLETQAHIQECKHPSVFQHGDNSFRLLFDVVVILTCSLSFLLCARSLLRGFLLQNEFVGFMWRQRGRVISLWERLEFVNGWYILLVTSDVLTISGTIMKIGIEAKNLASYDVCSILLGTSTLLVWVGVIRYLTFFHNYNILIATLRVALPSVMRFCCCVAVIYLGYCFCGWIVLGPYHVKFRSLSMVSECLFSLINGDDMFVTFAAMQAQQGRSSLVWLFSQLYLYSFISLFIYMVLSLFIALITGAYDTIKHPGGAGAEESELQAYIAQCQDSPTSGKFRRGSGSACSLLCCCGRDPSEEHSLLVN
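Calcium fluorescence in TRPML1-DL cells induced overnight with Tet: a 110 s read after compound pin addition, then a 110 s antagonist read after challenge with 54-4 at 4 uM final (EC80).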
TRPML1 agonist: activates the human TRPML1 channel | TRPML1-expressing cells, Ca2+ dye fluorescence, FDSS; host cell line not named in the record; reference of the full effect not given here | AID 624414 | 410,000 tested, 0.12% active | Q9GZU1 | activation, % (test concentration not listed); in the data active = activation above about 50%; inconclusive = about 30% to 50%; inactive = below about 30%; further: 0% is about no effect; the text of the record puts the active cut at 80%
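TRPML1-DL cells, Tet-induced overnight (~16 h, 37 degrees C), loaded 45-90 min at room temperature with Ca8 no-wash calcium dye plus quencher. FDSS fluorescence: 10 s baseline, compound pin-transfer, 110 s agonist read, then EC80 54-4 (4uM final) and 110 s antagonist read.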
CtBP-E1A inh: CtBP/E1A binding inhibition | AlphaScreen GST-E1A/His-CtBP binding, 1536-well; stronger effect = lower value; control for the full effect not named in the record | activity change, % (test concentration not listed) | 340,000 tested, 0.49% active; in the data active means activity change below about -65%; inconclusive means about -30% to -65%; inactive means above about -30%; further: on the % scale 0 is the no-effect control and ±100 the full control effect; compound concentration not given in the record
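In 5 uL wells, 23 nL compound meets equimolar GST-E1A and His-CtBP (5X stock 125 nM each) for 2 h, 37 °C. Beads (5X, 50 ug/mL) then 1 h, 37 °C, dark.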
Starred values were filed as active, the others as inactive; ? = inconclusive; . = no result given; [ ] = dose if it differs, or a comment.

SMILES	D2 agonist	PINK1 expr mod	Six1-Eya2 blk	TRPML1 blocker	TRPML1 agonist	CtBP-E1A inh
COc1ccc(C2(C(=O)NCCCN3CCOCC3)CCOCC2)cc1	1.0	0.8%[38.3 µM]	8	-5	-0.6	3
Cc1c(C(=O)NC(C)C)oc2c1-c1[nH]ncc1CC2	0.5	-1.5%	-6	0	-0.5	3
NC(=O)c1cccc(S(=O)(=O)N2CCCCC2)c1	-4.3	12%[38.3 µM]	-2	18	0.0	5
COCCNC(=O)COc1ccc(N(C)S(=O)(=O)c2ccc3ccccc3c2)cc1	0.4	1.7%	2	-19	-0.1	4
COc1ccccc1CNC(=O)C1CCC1	-6.5	-0.5%	-4	-4	-0.5	6
Clc1ccccc1COc1ccccc1-c1nnco1	-1.5	0.3%	1	13	-0.7	0
CN(C(=O)CSc1cn(CC(=O)N2CCCCCC2)c2ccccc12)c1ccccc1	.	-0.3%	.	13	1.0	.
COCCn1nnnc1C(CC(C)C)N1CCN(c2nc3ccccc3s2)CC1 (stereo not given)	1.2	1.8%	0	2	0.2	11
CCCNC(=S)N1CCCC(c2nc3ccccc3[nH]2)C1 (stereo not given)	-16	-0.4%	4	1	-0.3	-10
COc1cccc(OC)c1C(=O)NCC12CC3CC(C1)CC(CNC(=O)c1c(OC)cccc1OC)(C3)C2	-3.3	3.2%	-3	12	-0.5	11
COc1ccc(C(=O)COC(=O)c2cc(-c3ccccc3)nc3c(C)cccc23)cc1	.	0.8%	.	1	-0.8	.
Cc1cccc(NC(=O)CCCSc2nc3ccccc3[nH]2)c1	-21	-0.2%	-7	-7	2.3	-7
CS(=O)(=O)c1ccc(C(=O)Nc2cccc(-c3nc4ccccc4[nH]3)c2)cc1	1.0	-0.4%	-1	-2	-0.3	.
CCc1ccccc1OCC(=O)NC1CCCC1	-3.6	5.5%	7	-10	-0.1	5
Cc1[nH]c(C)c2c(=O)n(Cc3ccc(Cl)cc3)ncc12	4.5	1.8%	-1	-2	0.8	.
Cc1ccc(CNC(=O)C(=O)NCC2OCCN2S(=O)(=O)c2cccs2)cc1 (stereo not given)	-0.3	0.8%	1	-8	-0.9	2
CCc1nnc(NC(=O)Cc2ccc(Br)cc2)s1	-3.2	0.5%	-25	-5	0.8	2
CCOc1ccc(-c2nc(S(=O)(=O)c3ccccc3)c(N3CCOCC3)o2)cc1	-3.6	3.1%	1	-1	-0.2	-1
CN1CCN(CCCNC(=O)c2cc3c(=O)n(C)c4ccccc4c3s2)CC1	-0.7	4.0%	-15	9	-0.4	-5
CC1(C)C2CCC1(CS(=O)(=O)NCCc1c[nH]c3ccccc13)C(=O)C2 (stereo not given)	-0.1	0.1%	7	-10	0.3	-2
CCN(CC(=O)Nc1ccc2c(c1)OCCO2)C(=O)C(C)Oc1ccc(F)cc1 (stereo not given)	-0.4	5.1%	2	-1	-0.3	5
CCN(CC)C(=O)C1=C(C)N(CCCN2CCCC2=O)C(=O)C(CC(=O)NCCCCc2ccccc2)C1 (stereo not given)	-6.9	-0.4%	7	-7	-0.5	2
CCOc1ccc(C2NC(=O)c3ccccc3O2)cc1OCC (stereo not given)	1.7	-1.6%	19	2	0.7	-1
CC(=O)Nc1ccc(S(=O)(=O)N(C)CC(=O)NC2CCCCCCC2)cc1	-2.3	0.7%	2	-12	0.0	9
COc1ccc(CNC(=O)CCNS(=O)(=O)c2ccc(Cl)cc2)cc1	-2.8	-0.6%	2	-5	1.1	3
Remaining list, next part
SMILES	D2 agonist	PINK1 expr mod	Six1-Eya2 blk	TRPML1 blocker	TRPML1 agonist	CtBP-E1A inh
CC1(C)CC(=O)C=C(c2n[nH]nc2-c2ccccc2)C1	-9.9	2.7%	11	28	-0.1	1
CC1CN(S(=O)(=O)c2cccc(C(=O)N(C)C3CCCCC3)c2)CC(C)O1 (stereo not given)	-3.1	1.6%	4	1	-0.1	-10
CCOC(=O)C1CCN(C(=O)CCc2c(C)nc3ncnn3c2C)CC1	-3.7	1.6%	6	38	1.7	-2
O=C(O)CN1C(=O)/C(=C\c2cccc(OCc3ccc(F)cc3)c2)SC1=S	8.6	1.8%	-4	-8	1.4	-7
CCOc1ccc2nc(NC(=O)C3CCCN(S(=O)(=O)c4cccs4)C3)sc2c1 (stereo not given)	0.2	-0.9%	-28	-11	2.2	-19
Cc1ccc(C(CNC(=O)c2ccc(Br)o2)N2CCN(C)CC2)cc1 (stereo not given)	-1.8	0.7%	-1	-2	0.2	7
CCC1CCCCN1Cc1nc2c(c(=O)n(C)c(=O)n2C)n1Cc1cccc2ccccc12 (stereo not given)	-2.5	3.9%	4	-9	-0.2	-1
COc1cccc(C2CC(=O)Nc3cc(OC)c(OC)c(OC)c32)c1OC(C)C (stereo not given)	.	3.9%	.	10	-1.1	.
CCOC(=O)C1=C(C)Nc2nc(C)nn2C1c1ccc(OC)c(OC)c1 (stereo not given)	12	1.5%	-20	-12	0.0	-13
CCn1c(SCC(=O)NNC(=O)c2ccccc2)nnc1-c1ccncc1	0.7	3.2%[38.3 µM]	-1	-2	-0.8	4
CC(C)(C)OC(=O)NCCCC[C@H](NC(=O)c1nc[nH]c1C(=O)N1CCN(c2ccccc2)CC1)C(=O)OC(C)(C)C	1.1	-0.6%	-9	-13	3.3	-24
Cc1ccc(NC2c3ncccc3C(=O)N2Cc2ccc(F)cc2)cc1 (stereo not given)	0.9	?	-1	-9	1.4	1
C=CCn1c(SCC(=O)Nc2ccc(Br)cc2)nc(O)cc1=O	-1.3	-0.4%	-11	14	-0.3	-5
COc1ccccc1CCc1nnc(CCC(=O)NCCOc2cccnc2)o1	1.2	-1.0%	7	41	0.1	7
COC(=O)CSc1nc(Cc2ccccc2)nc2ccccc12	0.2	-2.6%	12	-15	2.6	.
O=C(NCc1ccco1)c1c(O)c2cccc3c2n(c1=O)CCC3	-1.4	11%	2	34	1.7	-1
Cc1coc2c(C)c3oc(=O)c(CC(=O)N[C@@H](CC(C)C)C(=O)O)c(C)c3cc12	0.4	-0.1%	-3	.	.	-4
Cc1csc(NC(=O)CSc2ccc(-c3ccccc3)nn2)n1	-2.2	-1.6%	-20	9	1.8	-8
CCCNC(=O)[C@H](Cc1c[nH]c2ccccc12)NC(=O)c1ccccc1Cl	-3.3	-2.5%	-11	15	0.8	0
O=C(c1cccc(S(=O)(=O)N2CCCCC2)c1)N1CCOCC1	-3.4	0.9%	8	9	6.2	5
CCOC(=O)N1CCN(C(=O)c2ccc3c(c2)sc2nc(-c4ccc(OC)cc4)cn23)CC1	2.1	1.6%	-30	12	0.1	-3
COCCn1c(SCC(=O)N2CCCC2=O)nc2sc(C)c(C)c2c1=O	2.5	6.1%	4	14	-0.3	3
CCOc1cccc(C2c3[nH]c4ccccc4c3CCN2C(=O)CCc2ccccc2)c1 (stereo not given)	.	1.1%	.	25	0.1	.
CN(C)c1nc2c(c(N)nn2-c2ccc(Cl)cc2)c(=O)o1	-0.6	2.2%	-9	-2	-1.1	-2
Cn1c(=O)c2c(nc(NCCNC(=O)c3ccco3)n2Cc2ccccc2F)n(C)c1=O	-0.5	1.4%	-1	14	-0.1	-9

Ordered by count of non-hydrogen atoms (highest first): five of the compounds above.
SMILES	D2 agonist	PINK1 expr mod	Six1-Eya2 blk	TRPML1 blocker	TRPML1 agonist	CtBP-E1A inh
CCC1CCCCN1Cc1nc2c(c(=O)n(C)c(=O)n2C)n1Cc1cccc2ccccc12 (stereo not given)	-2.5	3.9%	4	-9	-0.2	-1
Cn1c(=O)c2c(nc(NCCNC(=O)c3ccco3)n2Cc2ccccc2F)n(C)c1=O	-0.5	1.4%	-1	14	-0.1	-9
CC1CN(S(=O)(=O)c2cccc(C(=O)N(C)C3CCCCC3)c2)CC(C)O1 (stereo not given)	-3.1	1.6%	4	1	-0.1	-10
O=C(NCc1ccco1)c1c(O)c2cccc3c2n(c1=O)CCC3	-1.4	11%	2	34	1.7	-1
COC(=O)CSc1nc(Cc2ccccc2)nc2ccccc12	0.2	-2.6%	12	-15	2.6	.

Other records
SMILES	D2 agonist	PINK1 expr mod	Six1-Eya2 blk	TRPML1 blocker	TRPML1 agonist	CtBP-E1A inh
CN1CCC2(CC1)Nc1nc(SCc3ccc(Cl)cc3)nn1C1=C2CN(C)CC1	-0.7	-2.5%	3	-13	-0.1	-11
CCNC(=O)C1(C)CCN(C(=O)c2ccccc2C(F)(F)F)C1 (stereo not given)	-7.1	2.3%	6	.	-0.4	11
CCOC(=O)C1CCN(C(=O)CN(Cc2ccccc2)S(C)(=O)=O)CC1	-2.4	.	3	17	0.5	8
Cc1nn(-c2ccccc2)c(C)c1/C=N/NC(=O)CSc1nc2ccccc2c(=O)n1-c1ccc(Br)cc1	-3.3	7.8%	3	27	-0.8	10
COc1ccccc1C(=O)N(Cc1nc(-c2ccc(Cl)cc2)no1)C(C)C	2.6	9.1%	-9	11	1.1	1
CC(Sc1nnc(C2CC2)n1N)C(=O)NC1CCCCC1C (stereo not given)	2.6	0.2%	1	6	0.4	6
Cn1c(NN)nc2sc3c(c2c1=O)CCC3	-2.6	20%	?	6	-0.2	?
O=C(COc1ccc(Cl)cc1)N1CCN(c2ccc([N+](=O)[O-])c(N3CCCCC3)c2)CC1	-3.1	2.4%[38.3 µM]	-26	41	1.8	?
CCS(=O)(=O)C1=NSC2=NC(=O)/C(=C\c3cc(C)n(-c4cccc(OC)c4)c3C)C(=N)N21	-3.2	1.8%	-11	-5	0.3	-9
CCOC(=O)N1CCN(C(=O)CSc2nc3c(c(=O)n2-c2ccccc2OC)SCC3)CC1	0.3	-1.3%	9	9	2.2	1
COCOCCn1cc(CN2CCS(=O)(=O)N(Cc3ccc(-c4ccc(Cl)cc4)cc3)C(C)C2=O)nn1 (stereo not given)	-5.5	3.5%	0	1	0.1	4
COc1ccc(F)cc1S(=O)(=O)N1CCC(C(N)=O)CC1	-3.9	0.8%	-1	-3	-0.5	4
Cc1ccc(C)c(NC(=O)N2CCN(c3nnc(C)c4c(C)n(-c5ccccc5)nc34)CC2)c1	.	2.0%	.	28	4.9	.
Clc1ccc(CSc2nncn2-c2ccccn2)cc1	-2.2	-2.7%	-1	-3	0.1	5
CC(=O)c1ccc(S(=O)(=O)N2CCNC(=O)C2)cc1	0.1	0.4%	-9	15	-0.5	9
O=C(NCc1cccc(F)c1)c1cccc2c1C(=O)c1ccc(Cl)cc1S2(=O)=O	9.6	4.3%	-25	8	0.2	-13
CC(C)C(=O)N1CCC2(CC1)Oc1ccc(F)cc1C(=O)C21CC(c2ccc(Cl)cc2)=NO1 (stereo not given)	-4.2	0.5%	-1	58	1.3	-7
CC(Oc1ccc2ccc(=O)oc2c1)C(=O)NCC1CCC(C(=O)O)CC1 (stereo not given)	-0.8	0.0%	10	.	.	3
COCCCNC(=O)c1ccc2c(c1)ncn2-c1ccccc1OC	-1.7	8.3%	-3	12	-0.6	1

Some of the entries above, set out differently:
Below each SMILES – D2 agonist | PINK1 expr mod | Six1-Eya2 blk | TRPML1 blocker | TRPML1 agonist | CtBP-E1A inh
> COCCn1c(SCC(=O)N2CCCC2=O)nc2sc(C)c(C)c2c1=O
→ 2.5 | 6.1% | 4 | 14 | -0.3 | 3
> CCOC(=O)C1CCN(C(=O)CCc2c(C)nc3ncnn3c2C)CC1
→ -3.7 | 1.6% | 6 | 38 | 1.7 | -2
